# Screening results: PubChem BioAssay, Southern Research Institute
# Mtb growth – Confirmatory growth inhibition assay against Mycobacterium tuberculosis H37Rv, potency (AID 1949). most inactive calls were filed without a number and no value below 0 was filed. one-dose inhibition, % at 10 µg/mL; IC50 in µg/mL for titrated hits. 1.6% of 100,000 active;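 active means confirmed in a dose series; inconclusive means about 50% or more but not retested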;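 further: bacteria grown 7 days with compound before Alamar blue readout; 0% = untreated bacteria and 100% = reference antibiotic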
# * = called active by the depositor; i = inactive; ? = inconclusive.
SMILES,Mtb growth
Cc1ccc(S(=O)(=O)N(C(F)F)C(C)(C)C)cc1,6.7%
Cc1c(C(C)C)c(=O)oc2cc(OCC(=O)c3ccc(F)cc3)ccc12,2.1%
CS(=O)(=O)N1CCN(Cc2ccsc2)CC1,10.7%
CCn1c(Cc2ccccc2)nnc1SCC(=O)Nc1ccc(Br)cc1C(F)(F)F,i
COc1ccc(CNC(=O)Nc2ccc(F)cc2)cc1,i
Cc1cc(Br)ccc1OCC(=O)Nc1ccc(C(N)=O)cc1,8.9%
O=C(Cc1ccccc1)NCC(=O)N1CCN(C(c2ccccc2)c2ccccc2)CC1,3.0%
CC(Sc1nc(-c2ccccc2)cc(C(F)(F)F)n1)C(=O)NCc1ccccc1 (stereo not given),2.0%
Cc1cc(O)c(C(C)C)cc1NC(=O)c1cc(C(C)(C)C)oc1C,8.0%
CC1=C(C(=O)OCCOc2ccccc2)C(c2cc([N+](=O)[O-])ccc2Cl)C2=C(CCCC2=O)N1 (stereo not given),i
CCOCc1nnc(NC(=O)CCc2ccccc2)s1,i
O=C(Nc1cccc([N+](=O)[O-])c1)C1CC(=O)N(c2ccccc2F)C1 (stereo not given),i
CC(=O)c1ccccc1OC(=O)c1ccc(Cl)cc1Cl,i
O=C(COc1ccccc1Br)Nc1nc(-c2ccc(Cl)cc2Cl)cs1,i
S=C(NCc1ccco1)N1CCN(c2cccc(Cl)c2)CC1,2.2%
COCCn1c(=N)c(S(=O)(=O)c2ccc(C)cc2)cc2c(=O)n3cccc(C)c3nc21,i
COc1cc(NC(=O)C(Cl)(Cl)Cl)ccc1NC(=O)c1ccccc1Cl,1.7%
O=c1c2c(nc3nc(NCc4ccccc4)[nH]n13)CCC2,i
COc1ccccc1N1CCN(CC(O)COc2ccc(Cl)cc2Cl)CC1 (stereo not given),i
CCOc1ccc(N(CC(=O)Nc2ccc(OCc3ccccc3)cc2)S(C)(=O)=O)cc1,6.0%
Cc1cccc(OCCCC(=O)NCCc2ccccc2)c1,i
COc1ccc(NC(=O)c2c(-c3c(F)cccc3Cl)noc2C)cc1[N+](=O)[O-],i
N#C/C(=C\c1cccc(Cl)c1Cl)C(N)=S,i
CCC(=O)N1CCN(c2ccccc2NC(=O)COc2cccc(C)c2)CC1,i
CN1CCN(S(=O)(=O)c2ccc(NC(=S)NC(=O)C3CCCCC3)cc2)CC1,i
CCc1c(-c2ccccc2)cn2c1-c1ccc(C)n1CC2,36.4%
CC(C)c1ccccc1OCCOc1ncnc2ccccc12,i
C=CCn1c2ccccc2c2nnc(SCC(=O)Nc3ccccc3OC)nc21,i
O=C(Nc1cccc(I)c1)c1cccc(NC(=O)c2ccco2)c1,i
CC(Oc1cccc(Cl)c1)C(=O)N1CCN(c2ccc(F)cc2)CC1 (stereo not given),i
O=C(c1ccc(Cl)s1)N1CCOCC1,i
CC(C)(C)NC(=O)COc1ccc(CNCc2cccs2)cc1,i
COC(=O)C1=C(C)N(C)C(C)=C(C(=O)OC)C1c1ccccc1,i
CC(C)c1ccc(O)c(NC(=S)NC(=O)CCc2ccccc2)c1,i
COc1cccc(C2=NN(S(C)(=O)=O)C(c3cccs3)C2)c1 (stereo not given),i
COC(=O)c1cn(C(=O)c2ccc(Br)o2)c2ccccc12,i
CC(Oc1cccc(Cl)c1)C(=O)NCCN1CCOCC1 (stereo not given),1.8%
O=C(Oc1ccc(N(Cc2cccs2)C2=NS(=O)(=O)c3ccccc32)cc1)c1ccccc1F,i
c1ccc(N2CCN(c3ncnc4sc5c(c34)CCC5)CC2)cc1,i
Cn1c(NCCCO)nc2ccccc21,i
C=CCn1c(SCC(=O)Nc2cccc(C(F)(F)F)c2)nnc1-c1ccccc1,i
CCOc1ccc(NC(=S)N2CCN(c3ccccn3)CC2)cc1,i
COc1ccccc1NC(=O)C1=C(C)Nc2ncnn2C1/C=C/c1ccccc1 (stereo not given),0.6%
CC(Oc1cccc(Cl)c1)C(=O)NCC1CCCO1 (stereo not given),0.1%
CC(C)CNS(=O)(=O)c1ccc(CCC(=O)NC2CCCCCC2)cc1,i
Cc1cc(=O)oc2cc(NC(=S)NC3CCN(Cc4ccccc4)CC3)ccc12,i
Cc1nc(-c2ccc(C(=O)Nc3ccc(Oc4ccccc4)cc3)cc2)cs1,i
Cc1cccc(NC(=O)C(F)(F)F)c1C,i
COc1ccc(O)c(C(=O)CC(=O)c2ccc(F)cc2)c1,3.1%
O=C(CSc1nnc(CCCOc2ccc(Cl)cc2Cl)o1)Nc1nccs1,i
# (cont.)
SMILES,Mtb growth
COC(=O)c1sc2ncn(Cc3ccc(Br)cc3)c(=O)c2c1C,i
CCCCC(CC)C(=O)N1CCN(C(=O)c2ccco2)CC1 (stereo not given),i
COC(=O)Oc1ccc2c(=O)c(-c3ccccc3Cl)coc2c1,3.5%
CN(c1ccccc1C(=O)Nc1ccc(I)cc1)S(=O)(=O)c1ccccc1,i
CCc1ccc(CN(C(=O)C(C)C)C2CCS(=O)(=O)C2)cc1 (stereo not given),i
COc1ccc(-c2cc(C(=O)N3CCCC(C)C3)c3ccccc3n2)cc1 (stereo not given),i
O=C(Nc1ccc2c(c1)Cc1ccccc1-2)c1ccc2c(c1)OCO2,i
Cn1nc(-c2ccc(N3CCOCC3)c(NC(=O)COc3ccccc3)c2)c2ccccc2c1=O,i
Cc1cc(=O)oc(C)c1C(=O)OCC(=O)c1ccc(Cl)c(Cl)c1,i
C=C1c2cc(CC)ccc2NC(=O)N1c1ccc(F)cc1,i
CC(C)c1ccccc1NS(=O)(=O)N(C)C,3.6%
Cc1cccc(CSCC(=O)NNC(=S)Nc2ccc(C)c(C)c2)c1,i
C#CCOc1ccc(CNc2ccc(F)cc2)cc1Br,i
COCCCNCCOCCOc1ccc(Cl)cc1C(C)(C)C,?
CC(Oc1cc(Cl)ccc1Cl)C(=O)NNC(=S)NCc1ccco1 (stereo not given),1.9%
CCN(CC)S(=O)(=O)c1ccc2oc3ccc(S(=O)(=O)N(CC)CC)cc3c2c1,i
Cc1nnc(SCC(=O)Nc2nc(-c3ccc(F)cc3)cs2)s1,0.8%
O=C(NCc1cccs1)c1cnn2cc(Br)cnc12,i
O=C(Nc1nc2c(s1)C(=O)CCC2)c1ccccc1,i
COc1ccc(N(C(=O)c2ccccc2)S(=O)(=O)c2ccccc2)cc1,5.6%
COc1ccccc1COc1ccc2c(-c3ccccc3)cc(=O)oc2c1C,i
CC(SCc1ccccc1)C(=O)Nc1ccccc1 (stereo not given),i
CC(NC(=O)c1ccccc1Cl)c1nnc(SCC(=O)Nc2ccc(F)cc2)n1C (stereo not given),i
CCn1c(SCC(=O)Nc2cccc(C(F)(F)F)c2)nnc1-c1ccc(N)cc1,i
Cc1ccccc1OC(=O)c1cccc([N+](=O)[O-])c1,i
CC(CC(=O)NCc1ccco1)c1ccccc1 (stereo not given),i
CCOc1cc(C2NC(=S)NC(C)=C2C(=O)Nc2ccc(C)cc2)ccc1OC(C)C (stereo not given),i
Cc1ccc(NC(=S)N2CCCC2)cc1,i
O=C(CCS(=O)(=O)Cc1ccccc1)Nc1ccc2c(c1)OCO2,i
CCOc1ccc(NC(=O)c2ccccc2C(F)(F)F)cc1,1.4%

# An excerpt of these results, field by field:
CCOc1ccc(NC(=O)c2ccccc2C(F)(F)F)cc1
  Mtb growth: 1.4%
CCn1c(SCC(=O)Nc2cccc(C(F)(F)F)c2)nnc1-c1ccc(N)cc1
  Mtb growth: i
CC(NC(=O)c1ccccc1Cl)c1nnc(SCC(=O)Nc2ccc(F)cc2)n1C (stereo not given)
  Mtb growth: i
CC(SCc1ccccc1)C(=O)Nc1ccccc1 (stereo not given)
  Mtb growth: i

# Going on with the list.
SMILES,Mtb growth
CCOC(=O)N1CCN(c2ccc(Cl)c(Cl)c2)CC1,6.3%
COc1cccc(CNc2ccccc2O)c1OCc1ccccc1F,?
CC(NC1CC(=O)N(c2ccccc2)C1=O)c1ccccc1 (stereo not given),i
O=C(Nc1ccc(C(=O)N2CCCC2)cc1)Nc1cccc(C(F)(F)F)c1,i
CCC(=O)N/C(=N/c1nc(C)cc(C)n1)Nc1ccccc1,i
COc1cccc(-c2ccc(C#N)c(SCC(=O)Nc3cc(F)ccc3C)n2)c1,0.7%
O=C(CSc1nnc(-c2ccc(Cl)cc2Cl)n1-c1ccccc1)N1CCOCC1,i
O=C(NCCc1ccccc1)c1ccc(-c2ccc(F)cc2)o1,12.6%
COc1ccc(CC(=O)N2CC(C)CC(C)C2)cc1OC (stereo not given),i
O=C(COc1ccc2ccccc2c1)N1CCN(C(=O)c2ccccc2)CC1,i
COc1ccc(N2CCN(C(=O)C3CCCN(S(C)(=O)=O)C3)CC2)cc1 (stereo not given),i
O=C(Nc1ccccc1)c1ccc(NCc2cccnc2)c([N+](=O)[O-])c1,i
CC(=O)c1cccc(Nc2nc(-c3sc(C)nc3C)cs2)c1,19.9%
COc1ccc(NC(=O)N2CCCCCC2)c(OC)c1,i
COc1ccc(C(=O)Nc2ccc(C(=O)NC(C)CCc3ccccc3)cc2)cc1OC (stereo not given),i
COc1cccc2c1NC(c1ccc(Cl)cc1)C1CC=CC21 (stereo not given),6.5%
Cc1cc(Cl)c(S(=O)(=O)N2CCSCC2)cc1OCC(N)=O,i
COc1ccc(S(=O)(=O)Nc2ccc(C)cc2)cc1Br,i
COc1cccc(C(=O)N2CCN(C(=O)COc3ccc4ccccc4c3)CC2)c1,4.0%
CS(=O)(=O)N(CC(=O)Nc1ccc(Cl)c(C(F)(F)F)c1)c1cccc([N+](=O)[O-])c1,i
O=C(Nc1ccc(N2CCN(C(=O)c3cccs3)CC2)cc1)c1ccco1,1.1%
CC(=O)Nc1c(C)ccc(CNC(=O)COc2ccc(F)cc2)c1C,i
COC(=O)c1cc(C)sc1NC(=O)c1sc2cccc(Cl)c2c1Cl,i
CCc1cccc(C)c1NC(=O)c1ccc(OC(C)C)cc1,7.0%
CC(=O)Oc1ccc(Cl)cc1C1=NN(C(C)=O)C(c2ccccc2)C1 (stereo not given),2.3%
O=C(COC(=O)c1ccccc1N1C(=O)C2C3C=CC(C4CC34)C2C1=O)c1ccc(Cl)cc1Cl (stereo not given),i
CCOC(=O)c1c(NC(=O)c2cccc(OC)c2)sc(C(=O)Nc2ccccc2OC)c1C,i
CCOc1ccc(-c2[nH]ncc2C(=O)O)cc1Cl,i
CCN(CC)S(=O)(=O)c1cc(C(=O)O)cc(C)c1C,i
CC(=O)N(c1ccc(Br)cc1)C1C=CS(=O)(=O)C1 (stereo not given),i
O=C(NCCC1=CCCCC1)c1cccc2ccccc12,43.2%
COc1cc(OC)c(NC(=O)CSc2nnc(-c3ccncc3)n2-c2ccccc2)cc1Cl,0.3%
Cc1cc(C)nc(NS(=O)(=O)c2ccc(NC(=O)COc3ccc(Br)cc3)cc2)n1,i
CCn1c(=O)[nH]c2cc(C(=O)Nc3cc(C)cc(C)c3)ccc2c1=O,i
CC(C)(O)C#Cc1ccc(C(=O)N2CCN(c3cccc(C(F)(F)F)c3)CC2)cc1,i
Cc1ccc(C(=O)NCc2ccccc2)c(F)c1F,i
O=C1CC(Nc2ccc(F)cc2)C(=O)N1c1ccccc1Cl (stereo not given),i
Cc1cc(NC(=O)CSc2nnc(C)n2-c2ccc(Cl)cc2)ccc1Br,i
CCOC(=O)C(C(=O)OCC)C(Nc1cccc(C)c1)c1ccccc1 (stereo not given),i
Cc1cc(C(F)(F)F)n2ncc([N+](=O)[O-])c2n1,i
CCOc1ccc(C(=S)N2CCOCC2)c2ccccc12,i
COc1nnc(-c2ccc(C)c(S(=O)(=O)NCCO)c2)c2ccccc12,i
CN(C)c1ccc(/C=C/c2cc(C(F)(F)F)[nH]c(=O)n2)cc1,21.1%
COC(=O)c1cc(-c2ccccc2)sc1NC(=S)Nc1cccc(NC(C)=O)c1,i
Cc1ccc(C(=O)Nc2ccccc2C(=O)N2CCCC2)cc1,i
Cc1[nH]c2ccccc2c1C(=O)CSc1nncn1C,i
Cc1ccc(C(=O)O)cc1NC(=S)NC(=O)c1ccccc1Br,i
O=C(O)Cn1cc(-c2ccccc2)nn1,i
COc1cc(Br)cc2cc(C(=O)Nc3ccc4ccccc4c3)c(=O)oc12,i
CC1CCN(C(=O)CN(Cc2ccc(Br)cc2)S(=O)(=O)c2ccc(Cl)cc2)CC1,9.4%

# Quoted at random: four entries already listed.
SMILES,Mtb growth
CCOc1ccc(C(=S)N2CCOCC2)c2ccccc12,i
Cc1[nH]c2ccccc2c1C(=O)CSc1nncn1C,i
COc1nnc(-c2ccc(C)c(S(=O)(=O)NCCO)c2)c2ccccc12,i
COc1cc(Br)cc2cc(C(=O)Nc3ccc4ccccc4c3)c(=O)oc12,i

# (list continues)
SMILES,Mtb growth
O=C(CSc1ncn[nH]1)Nc1sc2c(c1C(=O)NCc1ccccc1)CCCC2,i
COc1cc(CO)cc(Cl)c1OCc1ccc(Br)cc1,5.4%
COc1c(Cl)cc(C(=O)Nc2cccc(C(C)=O)c2)cc1Cl,8.4%
Cc1ccc(NC(=S)NCc2ccccc2Cl)c(C)c1,i
Cc1cc(Cl)c(S(N)(=O)=O)cc1OCC(=O)NC1CCCCC1,i
CC(=O)c1ccc(OC(=O)c2ccco2)cc1,i
COc1cccc2cc(-c3csc(Nc4cccc(O)c4)n3)c(=O)oc12,2.7%
Nc1nc2ccccc2n1Cc1ccccc1Cl,i
CCOc1ccc2c(c1)nc1n2C(=O)CC(c2ccccc2)S1 (stereo not given),i
Cc1ccc(S(=O)(=O)CC(=O)N2CCCC2)cc1,i
COc1ccccc1-c1c(C(F)(F)F)oc2cc(OCC(=O)Nc3ccccc3C(F)(F)F)ccc2c1=O,i
COc1ccc(Cl)cc1NC(=O)C(=O)N1CCCCC1,1.6%
COC(=O)CN(C(=S)Nc1ccc(Cl)cc1)C1CC(=O)N(c2ccc(OC)cc2)C1=O (stereo not given),i

# As a working copy, part of the list above:
SMILES,Mtb growth
Cc1cc(Cl)c(S(N)(=O)=O)cc1OCC(=O)NC1CCCCC1,i
CC(=O)c1ccc(OC(=O)c2ccco2)cc1,i
COc1cccc2cc(-c3csc(Nc4cccc(O)c4)n3)c(=O)oc12,2.7%
Nc1nc2ccccc2n1Cc1ccccc1Cl,i

# This is a subset (hit frequency here may not be typical).
